# Source: PubChem (several laboratories)
# Mtb hypoxia inh = inhibitors of hypoxia-regulated fluorescent reporter in Mycobacterium tuberculosis; M. tuberculosis hypoxia-regulated fluorescent reporter, fluorescence; fluorescence inhibition, % (test concentration not listed); 300,000 compounds, 0.1% hits; AID 1159583;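 active = 35 to 45% if threefold the growth effect, above 45% if 1.5-fold the growth effect; inactive = the rest, general growth blockers included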;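 note: wells of about 50 µL received 100 nL stock; 0% = vehicle wells and 100% = reference inhibitor wells; whole bacteria with a GFP reporter of the hypoxia response; strong numbers were not always called active; many hits fall short of the cut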
# Bead autofluor = compound fluorescence in toxin protease inhibitor counterscreen; 360,000 compounds, 3.1% hits; fluorescence intensity (concentration not given with the values); compound autofluorescence counterscreen, microsphere flow cytometry; hits give high values;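 active = at least 3 SD above the mean of all compounds, about 16000 in these data; inconclusive = too few beads counted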;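 note: 100 nL of 1 mM stock went into each well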
# BJeLR lethal = kills HRASV12-expressing BJeLR cells | AID 1554 | 300,000 compounds, 0.17% hits | BJeLR (HRASV12) viability, CellTiter-Glo ATP luminescence, 48 h; reference of the scale not given here | inhibition, % (test concentration not listed);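 active = replicate mean above 50%; inconclusive = above 50% but judged a plate artefact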;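 note: 50 nL library stock added to about 25 µL; numbers are from one replicate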
# Sa RN4220 lethal = kills Staphylococcus aureus RN4220. S. aureus RN4220 growth, OD600, 16 h. inhibition, % (no concentration beside the values). 330,000 compounds, 0.33% hits. AID 1259311;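 active = z-score of -3 or lower and OD600 up to 0.18 on both plates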;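 note: plate controls were untreated cells for no effect and reference antibiotic for full effect; stock transfer was 100 nL into about 80 µL; one replicate is shown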
# PrP UTR inh = suppresses PrP 5' UTR mRNA reporter expression. cell-based PrP 5' UTR mRNA reporter, plate reader. inhibition, % (test concentration not listed). 340,000 compounds, 0.35% hits;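 active = every replicate at 50% or more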;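 note: 0 = median of the neutral control wells; tested in H4 reporter cells; numbers are from one replicate; inactives centre near -14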
# ugtP null kill = growth inhibition of S. aureus ugtP deletion strain; S. aureus RN4220 ugtP deletion, OD600 growth, 16 h; some inactives read as strong as hits; growth inhibition, % (test concentration not listed); 330,000 compounds, 0.54% hits; AID 1259309;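 active = z-score under -3 and OD600 up to 0.15 on both plates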;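 note: plate controls were untreated wells for no effect and antibiotic for full effect; wells of about 80 µL received 100 nL stock; the first replicate is given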
# Mtb hypoxia inh growth = further read-out of Mtb hypoxia inh, marked with its call; growth inhibition, %; measured here: M. tuberculosis growth (absorbance);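 0% = vehicle and 100% = reference antibiotic; read after six days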
# The depositor's hits bear a star; u = inconclusive; x = not tested or not shown; & = joins results of further samples.
Compound	ugtP null kill	Mtb hypoxia inh growth	Sa RN4220 lethal	PrP UTR inh	Bead autofluor	BJeLR lethal	Mtb hypoxia inh
Cc1ccccc1N1CCN(C(=O)c2ccccc2NC(=O)/C=C\C(=O)O)CC1	2	x	8.9	-27	4584	0	x
Cc1sc2nc(CSCC(=O)Nc3ccc(C(=O)N(C)C)cc3)[nH]c(=O)c2c1C	5	0	3.4	-1	x	x	2
CC(C)Sc1nc(N2CCCC2)c2c(c1C#N)CC(C)(C)OC2	19	x	-4.5	-8	3515	-8	x
Nc1ccccc1SC/C=C/CSc1ccccc1N	-2	10	9.4	-45	3109	2	15
COc1ccccc1NS(=O)(=O)c1cc([N+](=O)[O-])ccc1NN=Cc1c[nH]c2ccccc12	42	-1	65	x	x	x	9
COc1cc(OC)c(NC(=O)c2c(-c3ccccc3)noc2C)cc1Cl	10	-1	4.1	5	8091	-2	4
O=S(=O)(NCCc1csc(-c2cccnc2)n1)c1ccc2c(c1)OCCO2	-1	12	-3.0	-27	5892	-2	3
Cc1cc(NC(=O)C2CCN(S(=O)(=O)Cc3ccccc3)CC2)ccc1-n1cnnn1	1	x	4.2	-24	5218	5	x
CC(Oc1ccc(Cl)cc1)C(=O)Nc1cccc(S(=O)(=O)N2CCOCC2)c1 (stereo unspecified)	-3	6	-0.9	-10	7799	x	0
COc1cc(C2/C(=C(\O)c3ccc4c(c3)OCCO4)C(=O)C(=O)N2Cc2ccccc2)ccc1O (stereo unspecified)	5	-7	1.7	-16	5957	-12	7
Cc1nc2ccc(C(=O)OCc3nnc(-c4ccc(Br)cc4)o3)cc2nc1C	-2	-3	0.5	-24	5727	3	2
Cc1cccc(C(=O)OCC(=O)Nc2c(C)nn(-c3ccccc3)c2C)c1O	0	-11	2.0	-13	u	6	5
COc1cc2c(cc1OC)C(c1c(Cl)cccc1Cl)NC(=O)C2 (stereo unspecified)	3	2	6.4	3	3256	7	10
CCC(=O)NCCc1nc2ccccc2n1Cc1ccccc1	-2	7	1.4	-16	3277	-2	2
CCOc1cc2oc(=O)c3c(c2cc1Cl)CCC3	5	3	8.4	-18	11401	1	5
Cc1ccc(C)c(OCCCC(=O)Nc2ccc(N3CCOCC3)cc2)c1	-4	1	-3.1	x	x	-2	-9
Cn1cc(P(=S)(N2CCOCC2)N2CCOCC2)cc1P(=S)(N1CCOCC1)N1CCOCC1	3	-4	-3.7	-12	3461	3	-3
Cc1ccc(N(CC(=O)NCc2ccc3c(c2)OCO3)S(=O)(=O)c2c(C)noc2C)cc1	18	3	8.1	-14	5469	9	3
COc1ccccc1-c1nc(-c2ccc(C)nc2OC)no1	4	8	10	-70	7180	3	3
CSc1ccc(S(=O)(=O)N2CCC(C(=O)Nc3ccc(C(N)=O)cc3)CC2)cc1	-4	-7	2.5	-26	4205	-6	0
CC1(C)Cc2nc3sc4c(N(CCO)CCO)nnnc4c3cc2CO1	3	4	7.4	-15	4508	-6	19
COc1ccc(NC(=S)N(CCCN2CCOCC2)Cc2ccccn2)cc1	10	4	2.2	-13	3856	-10	0
O=C(CN1CCCCC1)Nc1nc(-c2ccc(F)c(F)c2)cs1	-19	10	-1.8	-20	4021	3	-8
COc1ccc(CN(CC(=O)NCC2CCCO2)C(=O)CNS(=O)(=O)c2ccccc2)cc1 (stereo unspecified)	0	0	-1.6	-17	3784	2	5
Cc1cccc(-n2c(-c3ccncc3)n[nH]c2=S)c1C	9	0	7.9	-24	4660	-2	-3
CC(=O)NC(=S)Nc1ccc(NC(=O)c2cccnc2)cc1	5	41	3.7	-15	3838	2	14
CC1=CS(=O)(=O)CC1Sc1ncn[nH]1 (stereo unspecified)	2	5	5.1	-6	3571	10	-1
CN(C)c1nc(NCc2ccccc2)nc(SCC(=O)Nc2ccc(Cl)c(Cl)c2)n1	-42	3	-9.2	-13	19687*	-5	3
COC(=O)c1sccc1NS(=O)(=O)c1ccccc1[N+](=O)[O-]	-2	10	9.8	-8	5451	x	10
CCc1cc(C(N)=S)ccn1	1&9	x	7.5&6.0	-25&-12	6154&5978	0	x

# 3 compounds picked at random from those above, as already listed:
Compound	ugtP null kill	Mtb hypoxia inh growth	Sa RN4220 lethal	PrP UTR inh	Bead autofluor	BJeLR lethal	Mtb hypoxia inh
CC(=O)NC(=S)Nc1ccc(NC(=O)c2cccnc2)cc1	5	41	3.7	-15	3838	2	14
COc1ccc(CN(CC(=O)NCC2CCCO2)C(=O)CNS(=O)(=O)c2ccccc2)cc1 (stereo unspecified)	0	0	-1.6	-17	3784	2	5
CC1=CS(=O)(=O)CC1Sc1ncn[nH]1 (stereo unspecified)	2	5	5.1	-6	3571	10	-1

# 4 entries from above in a different format:
Compound: CC1(C)Cc2nc3sc4c(N(CCO)CCO)nnnc4c3cc2CO1
- ugtP null kill = 3
- Mtb hypoxia inh growth = 4
- Sa RN4220 lethal = 7.4
- PrP UTR inh = -15
- Bead autofluor = 4508
- BJeLR lethal = -6
- Mtb hypoxia inh = 19

Compound: COc1ccc(NC(=S)N(CCCN2CCOCC2)Cc2ccccn2)cc1
- ugtP null kill = 10
- Mtb hypoxia inh growth = 4
- Sa RN4220 lethal = 2.2
- PrP UTR inh = -13
- Bead autofluor = 3856
- BJeLR lethal = -10
- Mtb hypoxia inh = 0

Compound: O=C(CN1CCCCC1)Nc1nc(-c2ccc(F)c(F)c2)cs1
- ugtP null kill = -19
- Mtb hypoxia inh growth = 10
- Sa RN4220 lethal = -1.8
- PrP UTR inh = -20
- Bead autofluor = 4021
- BJeLR lethal = 3
- Mtb hypoxia inh = -8

Compound: COc1ccc(CN(CC(=O)NCC2CCCO2)C(=O)CNS(=O)(=O)c2ccccc2)cc1 (stereo unspecified)
- ugtP null kill = 0
- Mtb hypoxia inh growth = 0
- Sa RN4220 lethal = -1.6
- PrP UTR inh = -17
- Bead autofluor = 3784
- BJeLR lethal = 2
- Mtb hypoxia inh = 5

# More structures follow.
Compound	ugtP null kill	Mtb hypoxia inh growth	Sa RN4220 lethal	PrP UTR inh	Bead autofluor	BJeLR lethal	Mtb hypoxia inh
COc1ccc(C2=NS(=O)(=O)N(C)C(C(=O)N3C(C)CCCC3C)=C2)cc1 (stereo unspecified)	0	4	5.9	-3	6320	18	-3
O=C(CSc1nc2ccccc2c(=O)n1CCC(=O)N1CCCCC1)NCc1ccccc1	2	7	1.7	-15	23326*	-3	2
CC(=O)OC1CCC2(C)C3CCC4(C)C(OC(C)=O)CCC4C3C(C)C2(O)C1 (stereo unspecified)	1	11	6.6	-20	3933	x	20
CCCc1cc(=O)oc2cc(C)cc(OC(=O)c3ccco3)c12	-16	6	-1.6	-27	11279	-5	19
COc1ccc(N2C(=O)CC(Sc3nc4c(cc3C#N)CCC4)C2=O)cc1 (stereo unspecified)	4	10	4.0	-11	3756	3	14
Cc1ccc(N2C(=O)C3C4C=CC(CNC(=S)N5CCN(c6cccc(C)c6)C(C)C5)(O4)C3C2=O)cc1 (stereo unspecified)	16	2	6.0	-12	x	0	-7
O=C(Nc1ccc2c(c1)C(=O)OC2)c1ccc(Cl)cc1	2	10	2.0	-27	5250	-8	15
CCC(C)N(C(=O)Cn1cnc2c1c(=O)n(C)c(=O)n2C)C1CCS(=O)(=O)C1 (stereo unspecified)	1	6	3.3	-12	6468	-12	10
N#CC1=C(N)OC2=C(C(=O)CCC2)C1CCc1ccccc1 (stereo unspecified)	-5	x	0.6	-20	4801	1	x
O=C(Oc1cccnc1)c1ccco1	5	11	4.4	-19	3936	-2	9
CC(C)NC(=O)N(C)C[C@H]1Oc2ccc(NC(=O)CCC(F)(F)F)cc2C(=O)N([C@H](C)CO)C[C@@H]1C	3	3	-9.9	-9	3758	x	11
CC(C)CCNC(=O)C(c1cccnc1)N(Cc1ccccc1)C(=O)Cn1nnc2ccccc21 (stereo unspecified)	8	1	3.9	-38	2272	-9	2
Cc1c(N2C(=O)/C(=C/C3CC=CCC3)SC2=S)c(=O)n(-c2ccccc2)n1C (stereo unspecified)	8	-9	1.2	x	5835	6	-6
COc1ccc(COCCN2CCN(S(=O)(=O)c3ccc(C)cc3)CCC2=O)cc1	-10	8	2.4	x	x	-4	7
Cc1occc1C(=O)NN=CC1=C(N2CCOCC2)/C(=C\c2ccc(Cl)cc2Cl)CC1	-15	-2	4.5	x	x	x	11
Cc1nn(-c2ccncc2)c2c1C(=O)CC(C)(C)C2Br (stereo unspecified)	-2	6	6.0	-8	3642	x	-5
Oc1ccc(Br)cc1CN1CCN(c2ccccc2)CC1	-11	16	4.1	-14	10323	x	14
CCOC(=O)C1CCN(C(=O)c2n[nH]c(=O)c3ccccc23)CC1	13	x	7.3	-12	2220	5	x
CC(C)(C)CC(=O)Nc1nnc(-c2cccs2)s1	-1	x	2.1	-127	3444	2	x
COc1ccc(C2C(C(C)=O)=C(O)C(=O)N2c2ccccn2)cc1 (stereo unspecified)	5	-5	5.7	-2	3475	-3	-3

# Entries of single compounds, quoted from the list:
# Results for `Nc1ccccc1SC/C=C/CSc1ccccc1N` → ugtP null kill = -2; Mtb hypoxia inh growth = 10; Sa RN4220 lethal = 9.4; PrP UTR inh = -45; Bead autofluor = 3109; BJeLR lethal = 2; Mtb hypoxia inh = 15
# Results for `Cc1nn(-c2ccncc2)c2c1C(=O)CC(C)(C)C2Br` (stereo unspecified) → ugtP null kill = -2; Mtb hypoxia inh growth = 6; Sa RN4220 lethal = 6.0; PrP UTR inh = -8; Bead autofluor = 3642; BJeLR lethal = x; Mtb hypoxia inh = -5
# Results for `Cc1ccccc1N1CCN(C(=O)c2ccccc2NC(=O)/C=C\C(=O)O)CC1` → ugtP null kill = 2; Mtb hypoxia inh growth = x; Sa RN4220 lethal = 8.9; PrP UTR inh = -27; Bead autofluor = 4584; BJeLR lethal = 0; Mtb hypoxia inh = x

# Carrying on:
Compound	ugtP null kill	Mtb hypoxia inh growth	Sa RN4220 lethal	PrP UTR inh	Bead autofluor	BJeLR lethal	Mtb hypoxia inh
O=c1[nH]c(CSc2nnc(NCCCN3CCOCC3)s2)nc2cc(Cl)ccc12	3	-2	1.0	-10	u	-3	18
O=C1C=C(NCc2ccco2)CC(c2ccc(Cl)cc2)C1 (stereo unspecified)	-4	13	-9.7	7	4787	0	-3
O=C(Nc1ccc(-n2cnnn2)cc1)c1cc(S(=O)(=O)N2CCCC2)ccc1Cl	3	1	2.9	-21	8292	x	-2
COc1ccc(OCCC(=O)N2CCOCC2)cc1	x	x	x	-20	4582	13	x
Cc1cc(Nc2ncc(Cl)cc2Cl)n(-c2ccccn2)n1	2	15	0.8	-6	3503	3	4
COC(=O)CSc1[nH]c2ccc(Br)cc2c1[N+](=O)[O-]	-1	23*	6.5	-13	4724	5	37*
O=C(c1ccc(CNS(=O)(=O)c2ccc(Br)cc2)cc1)N1CCCCC1	-10	3	-4.5	-12	5855	3	-11
O=C1CCCN1CCCNS(=O)(=O)c1ccc(F)cc1F	4	4	4.8	-4	u	0	1
CCCOc1ccc(C=Nc2ccc(OC)c(S(=O)(=O)N3CCOCC3)c2)c(O)c1	10	-7	4.2	-16	6438	x	7
C=CCN(CC=C)Cc1ccc(C(=O)OC)o1	7	x	2.8	-11	5902	4	x
N#Cc1ccc2nc3c(nc2c1)CCCC3	1	-2	1.5	-25	3593	-6	5
Cc1ccn2cc(C(=O)NC3CCN(Cc4ccccc4)CC3)nc2c1	-1	5	-0.6	-10	8910	-8	3
COc1ccccc1OCC(=O)NCCS(=O)(=O)N1CCN(c2ccccc2)CC1	1	4	1.1	-10	u	4	7
O=S(=O)(c1ccccc1)C1CON(Cc2ccccc2)C1c1ccccc1 (stereo unspecified)	-8	10	6.4	-12	4809	-2	1
Cn1c(SCC(=O)Nc2ccc(NC(=O)c3ccccc3F)cc2)nnc1-c1ccncc1	12	2	-0.2	-7	3631	4	-1
CC(=N[C@@H]1CCCC[C@H]1N=C(C)c1ccccc1O)c1ccccc1O	0	3	5.2	-26	2512	-1	6
